Mtb growth – M. tuberculosis H37Rv growth inhibitors, H37Rv strain (AID 1626); M. tuberculosis H37Rv growth inhibition; higher % means a stronger effect; inhibition, % at 10 µM; hits with a dose series show IC50 in µM; 0.95% of 220,000 active;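 active means confirmed in a dose series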;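 further: bacteria incubated seven days before Alamar blue readout; 0% = bacteria only wells and 100% = bacteria with antibiotic wells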
Mtb bLac sens – beta-lactam sensitization of Mtb H37Rv. AID 434955. 0.27% of 330,000 active. M. tuberculosis H37Rv growth with meropenem, percent inhibition; hits of this screen are not shown here. inhibition, % at 25 µM;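 active means about 74% or more and at least 40 points above the plate without the antibiotic, then above 30% in a dose series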;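 further: growth measured after seven days incubation then overnight dye step; 0% = bacteria only wells and 100% = bacteria with antibiotic; twin plates without the antibiotic show which effects depend on it; some results filed as inactive read as strong as hits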
Arbovirus inh – blocks arbovirus infection. arbovirus infection cell-based antiviral screen. inhibition, % at 10 µM. 0.37% of 200,000 active;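 active means inhibition from about 30%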;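 further: bluetongue infection of BSR cells; cell survival read as ATP light after 72 h; 0% = infected wells without compound and 100% = uninfected wells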
RecA intein inh – blocks M. tuberculosis RecA intein splicing. P9WHJ3. cell-free RecA intein splicing, fluorescence. inhibition, %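 (about 9 µM by stock and volumes)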. 0.75% of 290,000 active. AID 2221; in the data active means inhibition above about 30%;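 further: 0% = vehicle wells and 100% = reference inhibitor control wells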
Target sequence (P9WHJ3 whole entry, looked up): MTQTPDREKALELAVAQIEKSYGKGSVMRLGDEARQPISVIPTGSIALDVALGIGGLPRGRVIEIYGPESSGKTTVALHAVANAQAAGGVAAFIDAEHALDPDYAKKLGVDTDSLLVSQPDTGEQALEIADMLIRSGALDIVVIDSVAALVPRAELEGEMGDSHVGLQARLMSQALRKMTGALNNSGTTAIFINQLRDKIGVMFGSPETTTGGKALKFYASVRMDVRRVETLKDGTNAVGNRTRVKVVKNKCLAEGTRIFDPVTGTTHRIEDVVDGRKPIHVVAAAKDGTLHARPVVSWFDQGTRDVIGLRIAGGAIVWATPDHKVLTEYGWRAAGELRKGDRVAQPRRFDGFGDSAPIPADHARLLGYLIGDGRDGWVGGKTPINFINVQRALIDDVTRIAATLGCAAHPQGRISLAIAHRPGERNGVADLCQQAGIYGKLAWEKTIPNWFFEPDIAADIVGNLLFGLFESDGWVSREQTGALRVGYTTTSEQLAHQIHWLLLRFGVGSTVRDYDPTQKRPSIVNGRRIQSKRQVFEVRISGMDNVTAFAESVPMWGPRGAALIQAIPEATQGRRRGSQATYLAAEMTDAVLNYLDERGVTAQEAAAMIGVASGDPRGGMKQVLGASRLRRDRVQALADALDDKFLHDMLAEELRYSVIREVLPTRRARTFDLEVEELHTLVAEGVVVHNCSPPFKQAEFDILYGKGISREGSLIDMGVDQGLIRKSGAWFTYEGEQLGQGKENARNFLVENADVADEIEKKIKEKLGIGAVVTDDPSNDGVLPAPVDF
YopH PTP inh – inhibitors of Yersinia enterocolitica YopH tyrosine phosphatase; fluorescence Ex485/Em525; inhibition, %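 (about 10 µM by stock and volumes)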; 0.16% of 140,000 active;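 active means inhibition of 50% or more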;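 further: controls were vehicle for no effect and minimum signal wells for full effect; inactives centre near -20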
Arbovirus inh repeat – also measured in Arbovirus inh; calls as there; inhibition, %; measured here: 10K subset replicate screen; many hits read low in the repeat;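 first of two repeat runs on a subset; 0% = infected and 100% = uninfected wells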
* hit, by the source's call; nt = no result given.

SMILES	Mtb growth	Mtb bLac sens	Arbovirus inh	RecA intein inh	YopH PTP inh	others
CCOC(=O)CSc1nc(NCc2ccco2)c2ccccc2n1	2%	-2	8	2.6	-50
Cc1ccc(-n2c(C)cc(C3N=C(N)Nc4nc5ccccc5n43)c2C)c(C)c1 (stereo not drawn)	8.3µM*	99	-9	0.2	-44
O=[N+]([O-])c1cc(/C=N/N2CCN(C3c4ccccc4-c4ccccc43)CC2)ccc1Cl	14%	16	14	-4.4	-34
COc1ccc(S(=O)(=O)Nc2ccc(S(=O)(=O)Nc3nccs3)cc2)cc1	nt	6	nt	-0.1	nt
C[n+]1ccccc1/C=C1\Sc2ccccc2N1CCO	nt	-10	nt	1.9	nt
O=c1c2c3c(sc2nc2n1CCC2)CCCCC3	1%	3	8	1.5	nt
CC(C)=CC(=O)Nc1nnc(-c2cccnc2)s1	-4%	-3	-8	-0.2	-50
Cc1cc(Br)ccc1NC(=O)CCS(=O)(=O)c1cccc2nonc12	nt	2	nt	-2.6	nt
COc1cc(OC)c(C2=NOC(C(=O)N3CCc4ccccc4C3)C2)cc1Cl (stereo not drawn)	3%	27	0	0.2	-14
Oc1ccc2ccc3cccc[n+]3c2c1	-14%	-16	nt	-65	-5
O=C(Nc1cccc([N+](=O)[O-])c1)C1COc2ccccc2O1 (stereo not drawn)	nt	-3	nt	0.1	nt
COc1ccc(NC(=O)C=C(C)C)cc1Cl	-5%	7	3	1.6	-24
COc1cccc(C2C3=C(CC(C)(C)CC3=O)Nc3cc(OC)c(OC)cc32)c1 (stereo not drawn)	8%	1	13	-12	nt
COc1nc2ccccc2c(=O)n1-c1ccc(Cl)cc1	8%	-1	6	2.1	-10
O=c1[nH]c(=S)n(Cc2ccc(F)cc2)c(O)c1/C=N/N1CCCCC1	9%	11	6	0.3	-6
COC(=O)Cn1c(=O)c2c(n(Cc3ccccc3)c1=O)N/C(=C/c1ccc(OC)cc1)C2=O	6%	-3	nt	-0.9	nt
CCC(=O)c1cc2c(C)cc(=O)oc2c(C)c1OC(=O)C(C)C	5%	-2	-1	-3.7	-16
CCOC(=O)Cc1cc(C)[nH]c1C(=O)OCC	5%	-3	nt	-5.0	nt
CC/C(=C(/CC)c1ccc(O)cc1)c1ccc(O)cc1	-6%	-4	-31	14	nt
Cc1cc(=O)oc2c(C)c(OC(C)C(=O)NCCCn3ccnc3)ccc12 (stereo not drawn)	nt	9	nt	0.5	nt
Cc1cccc(NC(=O)c2cc(S(=O)(=O)N3CCc4ccccc43)cn2C)c1	nt	3	nt	-0.3	nt
CN(C)/C=C1/Oc2c(ccc3ccccc23)C1=O	-6%	3	11	3.2	nt
COc1ccc(OC)c(-n2c(C)nc3cc(C(=O)O)ccc32)c1	0%	0	10	-4.4	-35
Cc1cc(C)n2nc(C(=O)Nc3ccc(S(=O)(=O)N(C)C)cc3)nc2n1	5%	0	nt	0.5	nt
Cc1ccc(S(=O)(=O)N2CCOCC2)cc1NC(=O)CSc1ncccn1	nt	-6	nt	-1.8	nt
Cc1c(CCC(C)C)c(=O)n2c([nH]c3ccccc32)c1C#N	5%	70	15	-5.8	-18
CCOC(=O)c1cnc2c(ccc3ccccc32)c1Cl	nt	0	nt	3.1	nt
COC(=O)c1nc(-c2ccccc2)oc1N(C)C	12%	-4	-1	-1.6	-5
CCOC(=O)Cc1csc(NC(=S)NC(=O)c2ccc(Cl)cc2)n1	8%	9	5	1.5	-41
CS(=O)(=O)c1cccc(C(=O)Nc2ccccc2Cc2ccccc2)c1	nt	0	nt	-0.4	nt

The last 2 compounds of the part above come first, to join the parts.
SMILES	Mtb growth	Mtb bLac sens	Arbovirus inh	RecA intein inh	YopH PTP inh	others
CCOC(=O)Cc1csc(NC(=S)NC(=O)c2ccc(Cl)cc2)n1	8%	9	5	1.5	-41
CS(=O)(=O)c1cccc(C(=O)Nc2ccccc2Cc2ccccc2)c1	nt	0	nt	-0.4	nt
COc1ccc(-c2onc3ccc(Br)cc23)cc1	6%	3	-21	2.3	-19
Cc1ccc(OCC(=O)Nc2ccccc2Sc2ccc(Cl)cc2)c([N+](=O)[O-])n1	11%	13	0	2.3	-18
O=C(CCn1cnc2ccccc2c1=O)Nc1cccc(Cl)c1Cl	0%	-2	0	1.2	nt
CCN(c1ccccc1)S(=O)(=O)c1ccc(F)cc1	0%	-13	-4	-0.1	-1
COc1cccc(C(=O)NCC(=O)N/N=C/c2cccc(OC(=O)c3ccc([N+](=O)[O-])cc3)c2)c1	9%	7	-2	-0.5	-19
CCC(=O)N1CCc2cc(S(=O)(=O)NCCC(=O)NCc3ccc(F)cc3)ccc21	nt	5	nt	-1.9	nt
CN1CCN(NS(=O)(=O)c2ccc(Cl)s2)CC1	6%	2	1	-0.7	-30
O=C(NCc1cccnc1)c1ccc(COc2ccccc2Br)cc1	12%	6	-6	1.3	nt
O=C1CC(C(=O)Nc2ccc(O)c(C(=O)O)c2)C(c2ccccc2)O1 (stereo not drawn)	-4%	5	7	0.4	-2
C=CCOC(=O)Cn1cnc2c(sc3nc(C)cc(C)c32)c1=O	nt	-7	nt	0.1	nt
Cc1ccc(NC(=O)c2cn(CCC#N)nc2-c2ccc3c(c2)OCCO3)c([N+](=O)[O-])c1	nt	-1	-4	2.4	-22
Cn1c(=O)c2sccc2n2c(CCCC(=O)NCc3ccc(F)cc3)nnc12	nt	-10	nt	3.0	nt
CCc1ccccc1N(CC(=O)Nc1cccnc1)S(=O)(=O)c1ccccc1	nt	1	nt	3.7	nt
CCC(OC(=O)c1nsc(Cl)c1Cl)C(=O)NC(C)(C)C (stereo not drawn)	-3%	-4	2	-0.8	nt
CCCC(=O)Nc1ccc(C(=O)NCc2ccccc2Cl)cc1	1%	22	-7	0.4	-10
CC(C)(C)SCCNS(=O)(=O)c1ccc(F)cc1	-13%	6	5	-0.5	-26	Arbovirus inh repeat=6
O=C(Nn1c(O)c(C=C2N=c3ccccc3=N2)sc1=S)c1cccc(Cl)c1	-8%	nt	-10	-1.1	-18
Cc1c(CN2CCCC(C)C2)c(O)n(CCO)c(=O)c1C#N (stereo not drawn)	-2%	-1	-1	-3.1	nt
CCOC(=O)c1cccc(NC(=O)Nc2ccc(OCC)cc2)c1	-2%	11	-13	-1.7	nt
Cc1cccnc1NC(=O)c1c(O)c2ccccc2n(C)c1=O	9%	97	3	-0.8	-9	Arbovirus inh repeat=0
COc1cc(OC)c(C2CC(=O)N3CN(c4ccc(C)cc4)CSC3=C2C#N)cc1OC (stereo not drawn)	nt	-9	7	2.2	5
Cc1cccc(N(C)c2ccc3cc(S(=O)(=O)N4CCCC4)ccc3n2)c1	nt	-3	nt	-9.1	nt
Cc1ccc2c(=O)c(C(=O)NCc3cccs3)c[nH]c2c1	-3%	4	0	0.5	-19
COc1ccccc1-c1nnc(SC2CCc3ccccc3NC2=O)s1 (stereo not drawn)	-3%	-13	14	-1.1	-24
CCCCN1C(=O)C(=O)N(CC(=O)Nc2sc(CC)cc2C(=O)OCC)C1=O	nt	-11	nt	-0.7	nt
CCc1ccc(NC(=O)CN(c2cc(C)cc(C)c2)S(=O)(=O)c2c(C)[nH]c(=O)[nH]c2=O)cc1	nt	4	nt	-10	nt
C/C(=N\Nc1cccc([N+](=O)[O-])c1)c1cc2ccccc2o1	-1%	1	-2	-2.8	nt
Cc1ccc(Cc2nnc3n(-c4cccc(C)c4)nc(C(=O)c4ccccc4)n3c2=O)cc1	-5%	2	6	-0.2	6
CC(C)C(=O)NNC(=O)CSc1nnnn1C(C)C	-6%	-5	1	-1.6	nt
CNC(=O)c1ccc(C)c(NC(=O)C2=C(C)OCCS2)c1	nt	3	nt	0.0	nt

Arranged by molar mass (falling): part of the list above
SMILES	Mtb growth	Mtb bLac sens	Arbovirus inh	RecA intein inh	YopH PTP inh	others
CCc1ccc(NC(=O)CN(c2cc(C)cc(C)c2)S(=O)(=O)c2c(C)[nH]c(=O)[nH]c2=O)cc1	nt	4	nt	-10	nt
COc1cc(OC)c(C2CC(=O)N3CN(c4ccc(C)cc4)CSC3=C2C#N)cc1OC (stereo not drawn)	nt	-9	7	2.2	5
COc1ccccc1-c1nnc(SC2CCc3ccccc3NC2=O)s1 (stereo not drawn)	-3%	-13	14	-1.1	-24
Cc1cccc(N(C)c2ccc3cc(S(=O)(=O)N4CCCC4)ccc3n2)c1	nt	-3	nt	-9.1	nt

Other structures follow.
SMILES	Mtb growth	Mtb bLac sens	Arbovirus inh	RecA intein inh	YopH PTP inh	others
COC(CNC(=O)c1cn(C)c2ccc(S(=O)(=O)N(C)C3CCCCC3)cc2c1=O)OC	nt	-2	nt	0.0	nt
CCC(CC)C(=O)NN(C(=O)c1ccncc1)C1CC(=O)N(c2ccccc2)C1=O (stereo not drawn)	-7%	-11	nt	1.5	nt
NNC(=O)c1ccc2ccccc2n1	27%	nt	-6	nt	nt
CN(C)S(=O)(=O)c1cccc(NC(=O)c2cc3c(=O)n4ccccc4nc3s2)c1	-4%	-6	10	-15	5
Nc1ccc(C(=O)Nc2cccc(NC(=O)c3ccc(N)cc3)c2)cc1	nt	2	nt	-0.1	nt
C=CCNc1ncnc2c1ncn2C1OC(CO)C(O)C1O (stereo not drawn)	4%	4	5	0.3	-40
CCC(=O)Nc1nonc1-c1nc2ccccc2n1CCC(C)C	2%	6	-3	-3.8	57*
CC(C)[C@H](NC(=O)OCc1ccccc1)C(=O)OCC(=O)Nc1ccc(N2CCOCC2)cc1	nt	70	nt	-0.1	nt
COc1ccc(CCNC(=O)C(=O)c2c[nH]c3ccccc23)cc1OC	nt	9	nt	0.4	nt
Cc1cc(/C=C(/C#N)c2cccc(F)c2)c(C)n1-c1cccnc1	2%	99	-2	3.0	-32
CC(=O)O[C@@H]1[C@H]2[C@@H](C[C@@H](C)[C@@H]3C=CC(=O)[C@@]13C)OC(=O)[C@@H]2C	-1%	-3	nt	6.6	nt
O=C(Cn1cc(C(F)(F)F)cc(Cl)c1=O)NCCc1ccc(Cl)cc1Cl	-3%	-4	nt	-0.6	nt
CCn1nc(NC(=O)c2ccncc2)c2cc3cccc(C)c3nc21	-3%	-4	-1	-0.9	-36
NC(=O)CSc1nnc(-c2cccnc2)n1Cc1ccccc1	-10%	6	0	0.4	-39
Cc1cc(NC(=O)CSc2nc3c(c(=O)n2-c2ccccc2)SC(C)C3)no1 (stereo not drawn)	5%	9	4	2.1	-36	Arbovirus inh repeat=0
COc1cc2c(cc1NC(=O)COC(=O)/C=C/c1ccccc1)oc1ccccc12	-4%	-1	-16	-3.8	-7
O=C(CC1SC(N2CCCCC2)=NC1=O)Nc1cccc(C(=O)Nc2ncccc2O)c1 (stereo not drawn)	nt	3	nt	1.3	nt
CCOc1ccc(CNC(=O)CCC(=O)n2ncc3ccc(Cl)cc32)cc1	nt	-4	nt	-1.2	nt
CCS(=O)(=O)N1CCC(C(=O)Oc2ccc(C)c(C)c2)CC1	nt	54	nt	1.1	nt
O=C(CSc1n[nH]c(-c2ccncc2)n1)Nc1ccccn1	-7%	-6	4	-0.1	-21

The last two records of the section above come first, to join the parts.
SMILES	Mtb growth	Mtb bLac sens	Arbovirus inh	RecA intein inh	YopH PTP inh	others
CCS(=O)(=O)N1CCC(C(=O)Oc2ccc(C)c(C)c2)CC1	nt	54	nt	1.1	nt
O=C(CSc1n[nH]c(-c2ccncc2)n1)Nc1ccccn1	-7%	-6	4	-0.1	-21
Cc1ccc(C)c(N(C(=O)Cn2nnc(-c3cccs3)n2)C(C(=O)NC2CCCC2)c2ccncc2)c1 (stereo not drawn)	1%	1	2	-4.1	-27
Cc1ccc(S(=O)(=O)N2CCCN(S(=O)(=O)c3ccc4ccccc4c3)CC2)cc1	-1%	-2	4	-0.7	4
C=CCN1N=C(/C=C/c2ccccc2)CCC1=O	-7%	-6	-4	1.3	nt
CN(C)S(=O)(=O)c1cccc(NC(=S)NCc2ccco2)c1	-1%	-3	1	2.0	nt
CC(=O)c1ccc(NC(=O)N2CCN(c3ccc(C)cc3)C(C)C2)cc1 (stereo not drawn)	0%	6	1	-1.5	nt
Cc1ccc(-c2nc3ccccc3[nH]2)cn1	nt	-1	nt	4.2	nt
CC1=C(C(=O)Nc2ccccc2)C(c2cc(CN3CCOCC3)cs2)C2=C(CCCC2=O)N1 (stereo not drawn)	4%	-7	5	-10	nt
O=C(OC1CO[C@H]2O[C@@H]1[C@H](OC(=O)c1ccccc1)[C@H]2OC(=O)c1ccccc1)c1ccccc1 (stereo partly drawn)	nt	-3	nt	3.1	nt
COc1cc(CCC(=O)OCC(=O)Nc2c(F)cccc2F)cc(OC)c1OC	nt	0	nt	0.3	nt
CCOc1ccc(CNC(=O)CS(=O)(=O)Cc2nc(-c3ccc(OC)cc3)oc2C)cc1	nt	3	nt	0.1	nt
O=C(/C=C1\SC(=O)NC1=O)Nc1ccc(C(=O)O)cc1	1%	-3	nt	2.3	nt
Cc1c(Cc2ccccc2)c(=O)oc2cc(O)cc(O)c12	-2%	-2	-17	-58	nt
Cc1ccc(C(=O)Nc2ccc(O)cc2C(=O)O)cc1C	12%	16	22	0.4	-45
Cc1cc(-c2ccco2)n(CC(=O)O)n1	-2%	-4	3	-1.4	-43

Screening data (PubChem BioAssay)

A portion of the library (hit frequency here may not be typical).
